HTT promoter inh – inhibits huntingtin promoter activity. HEK293 HTT promoter firefly luciferase reporter (activity 0% = vehicle and -100% = no light), 24 h. Potency, µM (highest dose often 57.5 µM), without a hit: top-dose activity change, negative = inhibition, most hits filed as inhibitors. 48,000 tested, 0.93% active. AID 1508623; active means well fitted inhibition curve with a large enough effect; inconclusive means small, poorly fitted or top-dose-only effect; inactive means no such curve, though single readings can be large or run the other way; further: nearly all actives have a fitted effect of over 50% in size
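HEK293 Fluc reporter, 2,500 cells/well, 24 h pre-culture; cpds up to 57.5 uM final, 24 h 37 degrees C; Dual-Glo, 10 min RT; normalized vehicle = 0%, zero RLU = -100%.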
PMP22 txn prim – modulators of PMP22 gene transcription in S16 Schwann cells; 43,000 tested, 2% active; S16 Pmp22-F2sN Schwann cells (luciferase reporters placed in the Pmp22 gene), FLuc/NLuc coincidence luminescence, 24 h; Potency, µM (doses to about 57.5 µM), without a hit: at the highest dose activity change, negative = inhibition, actives largely listed as inhibitors; active = clear falling dose curves in both reporters; inconclusive = both reporters move, but less clearly or upward; inactive = either reporter flat; the % is the NLuc reporter signal; further: on the % scale 0 is the no-effect control and ±100 the full control effect; some results filed as inactive show a strong effect at the top dose
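qHTS, 1536-well. Cells seeded, compounds added by pin tool, 24 h 37C. Nano-Glo reagent 1 (lysis/FLuc), 10 min RT, read; Stop&Glo, 10 min RT, read NLuc.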
* hit, by the source's call; ? = inconclusive; · = no result given; [ ] = dose if it differs, or a comment. Potency means the concentration at half of the fitted maximal effect.

SMILES	HTT promoter inh	PMP22 txn prim
Cc1ccc(CNc2nc3c(S(=O)(=O)c4ccc(C)c(C)c4)nnn3c3ccc(Cl)cc23)cc1	11%	-29%
CCc1nn(CC(=O)NCCc2ccc(SC)cc2)c(=O)c2cc3sccc3n12	-12%	-1%
O=C(OCC1CCCO1)c1ccc2c(c1)N(Cc1ccccc1F)C(=O)c1ccccc1S2(=O)=O (centres undefined)	3%	0%
CCCCN(CC)CCNc1ncnc2onc(-c3ccc(Cl)cc3)c12	-29%	-6%
Cc1c(C)n(C)c2ccc(C(=O)NCCc3ccc(Cl)cc3)cc12	3%	-38%
CCc1ccc(C2=C(C)C(N3CCC(C(=O)Nc4ccc(F)cc4)CC3)=NS2(=O)=O)cc1	?	?
COc1ccc(OC)c(Nc2ncc3c(n2)CCN(Cc2cc(OC)c(OC)c(OC)c2)C3)c1	-24%	-13%
CCOc1ccc(CCNC(=O)c2nn(-c3ccc(OC)cc3)c(=O)c3c2c2ccccc2n3C)cc1OCC	-15%	10%
CCc1cc2c(cc3c(=O)n(CC(=O)NCCc4ccccc4)ncn32)s1	0%	?
Cc1ccccc1CN1C(=O)c2ccccc2Sc2ccc(C(=O)NCCCN3CCOCC3)cc21	-13%	?
Cc1ccc(NC(=O)c2cc(S(=O)(=O)NC3CCCCCC3)ccc2F)cc1F	?	?
CCc1nc2ccc(C(=O)N3CCN(c4cccc(Cl)c4)CC3)cc2nc1CC	?	?
CCc1ccc(-c2nn(CC(=O)NC3CCCCC3)c3c2cnc2ccc(OC)cc23)cc1	14%	-53%
CCc1ccc(NC(=O)Cn2c(=O)n(CCCCC(=O)NCCc3ccccc3)c(=O)c3ccccc32)cc1	-3%	-23%
CCOC(=O)c1c(-c2ccccc2)csc1NC(=O)c1nc(SCC)ncc1Cl	-5%	-50%
Cc1cccc(NC(=O)Cn2nc(C)c3nn(-c4ccc(Cl)cc4)c(C)c3c2=O)c1C	?	-9%
Cc1ccc2nc(-c3ccc(Cl)c(NC(=O)c4cccnc4)c3)oc2c1	2%	?
CSc1ccc(CCNC(=O)c2c(C)oc3ncn(C)c(=O)c23)cc1	3%	18%
Cc1c(C(=O)N(C)C)sc2c1c(=O)n(-c1ccc(F)cc1)c(=O)n2CC(=O)N(C)c1ccccc1	-17%	-6%
Cc1ccc(NC(=O)c2ccc(CN3CC(=O)N4CCCCC4C3=O)cc2)c(Cl)c1 (centres undefined)	-38%	-9%
O=C(Nc1ccccc1C(F)(F)F)C1CCN(c2nnc(-n3cccc3)s2)CC1	-19%	4%
CCOc1ccc2nc(S(N)(=O)=O)sc2c1	25%	·
COc1cc(OC)c(NC(=O)C2CCN(S(=O)(=O)c3ccc4c(c3)oc(=O)n4C)CC2)cc1Cl	6%	-14%
CCCSc1ncc(Cl)c(C(=O)Nc2ccc(S(=O)(=O)N3CCCCC3C)cc2)n1 (centres undefined)	?	11µM*
CC(C)c1cnc2c(c1SCC(=O)NCc1ccccc1)c(=O)n(C)c(=O)n2C	-8%	-34%
SMILES	HTT promoter inh	PMP22 txn prim
CCOCCCNC(=O)c1cn(CC)c2ccc(S(=O)(=O)N3CCOCC3)cc2c1=O	-5%	-3%
C#CCn1c(=O)n(-c2cccc(Cl)c2C)c(=O)c2c3c(sc21)CN(C(C)=O)CC3	4%	?
CNCCC(Oc1ccccc1OC)c1ccccc1 (centres undefined)	9%	·
CC(C)=CCC/C(C)=C/CC/C(C)=C/C(=O)OCC(=O)[C@@]1(O)CC[C@H]2[C@@H]3CCC4=CC(=O)C=C[C@]4(C)[C@H]3[C@@H](O)C[C@@]21C	9%	·
O=C(Cc1csc2nc(-c3ccc(F)cc3)cn12)NCc1ccccc1	19%	-10%
O=C(CCS(=O)(=O)c1cc2c(cc1Cl)NC(=O)CO2)NCc1ccc(Cl)cc1	-16%	?
O=C(CCC1N=C2c3ccccc3N=C(SCc3cccc(Cl)c3)N2C1=O)NCc1cccs1 (centres undefined)	-3%	-5%
CC(C)C1N=C2c3ccccc3N=C(SCC(=O)NCc3ccc(F)cc3)N2C1=O (centres undefined)	-21%	-20%
O=S(=O)(c1ccc(Cl)cc1)c1nnn2c1nc(N1CCCCC1)c1sccc12	-2%	?
Cc1ccc2nc(NCCc3ccc(Cl)cc3)c3nncn3c2c1	-13%	-11%
O=C(COc1ccc(Cl)cc1)OCc1cc(=O)n2nc(C3CC3)sc2n1	-10%	11%
Cc1ccc(C)c(CSc2cn(CCNC(=O)c3cccs3)c3ccccc23)c1	?	?
CCN(CC)S(=O)(=O)c1ccc2nc(NC(=O)c3ccc(Br)o3)sc2c1	15%	?
NCCCNCCSP(=O)(O)O	4%[11.5 µM]	·
CCOC(=O)c1ccccc1NC(=O)CN(c1cccc(C)c1C)S(=O)(=O)c1ccccc1	?	?
O=C1CS(=O)(=O)C2(C(=O)Nc3ccccc32)N1c1cccc(Cl)c1 (centres undefined)	-10%	-3%
COc1cccc(NC(=O)c2c(N3CCCC3=O)c3cc(C)ccc3n2C)c1	?	?
COc1cccc(NS(=O)(=O)c2ccc(-c3cc(C)no3)s2)c1	?	1%
COc1ccc(OC)c(-n2cnc3cc(C(=O)NC4CCCC4)ccc32)c1	-14%	-4%
CCOC(=O)c1c(C)oc2nc(C)nc(NCCc3ccc(SC)cc3)c12	4%	?
COC(=O)c1cc2oc3ccccc3c2n1Cc1nc(-c2ccccc2C)oc1C	-23%	0%
CCOCCCn1c(=N)c(C(=O)NC(C)c2ccccc2)cc2c(=O)n3cccc(C)c3nc21 (centres undefined)	-26%	15µM*
Cc1ccccc1C(=O)Nc1cccc(-c2cn3cccnc3n2)c1	-9%	-12%
CCCCOC(=O)c1ccc(NC(=O)/C(C#N)=C/c2ccc(-c3ccccc3)o2)cc1	-24%	-14%
O=C(Cn1c(=O)ccc2cc(S(=O)(=O)N3CCCC3)ccc21)Nc1ccc(Cl)cc1	-26%	-15%

Molecules shown so far containing a furan ring, fused or not:
SMILES	HTT promoter inh	PMP22 txn prim
CSc1ccc(CCNC(=O)c2c(C)oc3ncn(C)c(=O)c23)cc1	3%	18%
CCN(CC)S(=O)(=O)c1ccc2nc(NC(=O)c3ccc(Br)o3)sc2c1	15%	?
CCOC(=O)c1c(C)oc2nc(C)nc(NCCc3ccc(SC)cc3)c12	4%	?
COC(=O)c1cc2oc3ccccc3c2n1Cc1nc(-c2ccccc2C)oc1C	-23%	0%
CCCCOC(=O)c1ccc(NC(=O)/C(C#N)=C/c2ccc(-c3ccccc3)o2)cc1	-24%	-14%

Profiles as entered above. Order of values: HTT promoter inh	PMP22 txn prim
O=C(COc1ccc(Cl)cc1)OCc1cc(=O)n2nc(C3CC3)sc2n1 is listed as -10%	11%
NCCCNCCSP(=O)(O)O is listed as 4%[11.5 µM]	·
C#CCn1c(=O)n(-c2cccc(Cl)c2C)c(=O)c2c3c(sc21)CN(C(C)=O)CC3 is listed as 4%	?

More entries follow.
SMILES	HTT promoter inh	PMP22 txn prim
COc1cccc2sc(N(Cc3cccnc3)C(=O)COc3ccccc3)nc12	-27%	-11%
Cc1ccccc1-c1noc(-c2ccc(NC3CCCC3)c([N+](=O)[O-])c2)n1	-7%	-1%
Cc1cccc(C(=O)N2CCc3cc(CNS(=O)(=O)c4ccc(Cl)s4)ccc32)c1	?	-30%
Cc1ccc(SCCNC(=O)CN(c2ccccc2)S(=O)(=O)N(C)C)cc1	-21%	-14%
COc1cc(NC(=O)CCN2CCN(CCO)CC2)cc(OC)c1	-11%	-18%
O=C(NCCCc1nc2ccccc2n1Cc1ccc(F)cc1)C1CCCCC1	-24%	-24%
CN(C)c1ccc(CNC(=O)C2COc3ccccc3C2)cc1 (centres undefined)	46%[activator]	?
Cc1ccccc1C(=O)Nc1sc2c(c1C(=O)N1CCCCC1)CCC(C(C)(C)C)C2 (centres undefined)	-7%	?
Cc1cccc(NC(=O)C2CCCN(S(=O)(=O)c3ccc4c(c3)CCCC(=O)N4)C2)c1 (centres undefined)	-26%	-4%
COc1ccc(OC)c(NC(=O)c2sc3nc4c(cc3c2N)CCCCCC4)c1	?	?
O=C(CSC1=Nc2ccccc2N=C(c2ccc(F)cc2)C1)Nc1ccc(Cl)cc1	-2%	?
CCN(c1ccccc1)c1ccc2cc(S(=O)(=O)N3CCCC3)ccc2n1	3%	5%
Cc1cc(C)c(NC(=O)CSc2nc(-c3ccc(F)cc3)nc3c2Cc2c(CO)cnc(C)c2O3)c(C)c1	-12%	-15%
NC(=O)c1ncn([C@@H]2O[C@H](CO)[C@@H](O)[C@H]2O)c1O	0%	·
COc1cc(NC(=O)c2sc3nc4n(c(=O)c3c2C)CCCCC4)cc(OC)c1OC	-16%	1%
CC(C)CN(CC(C)C)S(=O)(=O)c1ccc(C(=O)Nc2sc3c(c2C(N)=O)CCN(C(C)C)C3)cc1	?	?
O=C(NCCSc1c(-c2ccc(Br)cc2)[nH]c2ccccc12)c1ccc(S(=O)(=O)N2CCOCC2)cc1	?	8µM*
Cc1ccc(CNC(=O)CSc2nc3ccccc3nc2Cc2ccc(C)cc2)cc1	1%	?
COC(=O)CS(=O)(=O)c1nc2ccccc2nc1N1CCCCC1	4%	11µM*
CC(C)COc1ccc(C(=O)Nc2onc3c2CCCC3)cc1	0%	6%
Cc1ccc2oc(=O)n(CCNC(=O)Nc3ccccc3Cl)c2c1	-12%	4%
COc1ccc2c(c1)CC(C(=O)NCCCN1CCN(c3cccc(Cl)c3)CC1)CO2 (centres undefined)	?	-34%
CCS(=O)(=O)c1ncc(Cl)c(C(=O)N2CCN(c3ccc(OC)cc3)CC2)n1	?	6.6µM*
O=C(O)c1ccc2nc(-c3cc4cc(Cl)ccc4oc3=O)[nH]c2c1	-16%	2%
O=C(Cn1ccn(-c2ccc(F)cc2)c(=O)c1=O)Nc1ccccc1C(F)(F)F	-11%	-6%
SMILES	HTT promoter inh	PMP22 txn prim
Cc1ccc(OCC(=O)N(c2ccc(C)cc2)S(=O)(=O)c2ccc(Cl)cc2)cc1	-30%	?
COc1ccc(CCNC(=O)C2CCN(Cc3nc(-c4ccc(OC)c(OC)c4)oc3C)CC2)cc1OC	7%	6%
Cc1ccc(CNC(=O)Cn2c(=O)ccc3cc(S(=O)(=O)N4CCC(C)CC4)ccc32)cc1	-24%	-1%
COc1cc2c(=O)c(C(=O)c3ccc(C)c(C)c3)cn(Cc3ccc(F)cc3)c2cc1OC	2%	?
Cc1c(Cl)cccc1NC(=O)Cn1nnc2sc3c(c2c1=O)CCCC3	-11%	?
COc1ccc(CCNC(=O)CSc2cn(CCNC(=O)c3ccc(OC)c(OC)c3)c3ccccc23)cc1OC	?	?
CCOc1ccccc1CNC(=O)c1ccc2nc(Cc3ccc(OC)cc3)oc2c1	?	?
CCOc1ccc(Nc2nc(C)c(NC(=O)c3cccc(OC)c3)c(Nc3ccc(OCC)cc3)n2)cc1	?	?
COc1ccc(C)cc1NC(=O)Nc1cc(C(=O)NCc2ccc(C)cc2)ccc1N1CCCC1	-18%	?
Cc1ccc(NC(=O)C(c2ccccc2)N2Cc3ccccc3C2=O)cc1Cl (centres undefined)	3%	-40%
CCc1ccccc1NC(=O)C(=O)NCCc1sc(-c2cccc(F)c2)nc1C	-29%	?
COc1ccc(NC(=O)c2cc(S(=O)(=O)N3CCCCCC3)cn2C)cc1Cl	?	-26%
CCn1c(=N)c(C(=O)NCc2ccccc2)cc2c(=O)n3cccc(C)c3nc21	-3%	-56%
CCOc1nc(NC(=O)NS(=O)(=O)Oc2cccc(F)c2)nc(-c2ccccc2)n1	46%[activator]	-11%
COc1ccc(Cl)cc1NC(=O)Cn1c2ncccc2c(=O)n1-c1ccc(C)c(C)c1	-7%	6%
COc1ccc(NS(=O)(=O)c2cc3c4c(c2)CC(=O)N4CCC3)cc1Cl	?	?
COc1ccccc1NC(=O)N1CCC(CN2CCc3ccccc3C2)CC1	-9%	-25%
CCC(C)NC(=O)C1CCN(C(=O)c2cc3sccc3n2Cc2ccc(Cl)cc2)CC1 (centres undefined)	8.9µM*	8.9µM*
CCOC(=O)C1CCN(C(=O)C2COc3ccccc3C2)CC1 (centres undefined)	-18%	-3%
Cc1ccc2c(c1)c(=O)c1ccccc1n2CCCC(=O)Nc1ccc(C)c(F)c1	?	?
CCC(Cn1nnc2ccccc2c1=O)NC(=O)Nc1ccccc1Cl (centres undefined)	-14%	-26%
Cc1cc(=O)n(CC(=O)Nc2ccc(Cl)c(Cl)c2)c(-n2nc(C)cc2C)n1	?	?
CC(=O)N1CCc2c(sc3c2c(=O)n(-c2ccccc2)c(=O)n3CC(=O)Nc2ccccc2C)C1	-6%	0%
CCOc1ccc(C(=O)N2CCC(c3nc(-c4ccc(S(=O)(=O)N5CCCC5)cc4)no3)CC2)cc1	-22%	?
O=C(Nc1cccc(F)c1)c1ccc(-c2ccccc2)s1	28%	?
COc1ccccc1CCNC(=O)CCc1c(C)c2cc3c(C)c(C)oc3cc2oc1=O	-3%	-17%
Cc1cc(C)c(NS(=O)(=O)c2ccc(-c3coc(C)n3)cc2)c(C)c1	-26%	-8%
COc1ccc2c(c1)sc1ncc(C(=O)NCc3ccc(OC(C)C)cc3)c(=O)n12	-1%	-14%
Cc1ccc(CNC(=O)c2cc3c(s2)-c2c(C)cccc2OC3)cc1	-16%	?

Screening results (PubChem)
